Compound activity from PubChem BioAssay.
FGF22 binding – binders of human FGF22 protein, primary screen, FGF22 synaptogenesis inhibitor project, biophysical, thermal shift, single point | calls only at 9.99 µM | actives 1.5% (n = 340,000) | recombinant FGF22 thermal shift, SYPRO orange fluorescence; percent of sucrose octasulfate shift, DMSO zero;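 active = melting point raised past a set limit in the mean and every replicate; inconclusive = no clear call; three in four hits are not shown here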
Target sequence (Q9HCT0 whole entry, looked up): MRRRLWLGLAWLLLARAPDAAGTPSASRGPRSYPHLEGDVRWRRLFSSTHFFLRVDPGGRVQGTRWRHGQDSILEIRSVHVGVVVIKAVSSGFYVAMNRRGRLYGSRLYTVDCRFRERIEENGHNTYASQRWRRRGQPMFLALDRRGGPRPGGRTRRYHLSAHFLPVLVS
rRNA inh HTS – reduced GFP signal of wild-type E. coli, primary screen, bacterial rRNA inhibitor project, GFP/RFP fluorescence, OD600, single point. AID 720706, 2013. actives 1.6% (n = 350,000). E. coli WT GFP vs humanized-ribosome RFP mutants, 24 h; stronger effect = lower value; DMSO median 0, no signal -100. GFP signal change (wild-type ribosome), % (no concentration beside the values);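 active = significant combined selectivity score with lowered wild-type GFP, culture density cut under 30%, mutant RFP and density less affected; inactive = any of these conditions unmet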; also: one replicate is shown; some compounds called inactive have numbers as strong as hits
RanGTP-Imp inh – inhibitors of RanGTP-importin-beta interaction, primary screen, biochemical, FRET, CFP-Ran, YFP-importin-beta, homogeneous; cell-free CFP-Ran/YFP-importin-beta FRET ratio; inhibition, % (no concentration beside the values); actives 1.1% (n = 300,000);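 active = most replicates above 15%; inconclusive = exactly half above 15%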;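 also: 0% = DMSO wells and 100% = Ran loaded with GDP instead of GTP; wells of about 40 µL received 100 nL stock; the first replicate is given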
Calb FLC – C. albicans growth inhibition with fluconazole, primary screen, CaCi-2 strain, Alamar Blue fluorescence; actives 0.57% (n = 300,000); C. albicans CaCi-2 (fluconazole-resistant clinical isolate) + fluconazole, 48 h; growth inhibition, % (concentration not given with the values); AID 1979, 2009;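 active = most replicates above 75%; inconclusive = exactly half above 75%; inactive = most below 75%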;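 also: all wells also contain fluconazole at 8 µg/ml as a sub-toxic cotreatment; 0% = median of DMSO wells and 100% = median of geldanamycin control wells; wells of about 8 µL received 7.5 nL stock; the first replicate is given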
Beta cell apopt – inhibitors of cytokine-induced beta cell apoptosis, primary screen, luminescence | INS-1E cytokine-induced death, ATP luminescence, 48 h; percent of positive-control rescue, neutral wells zero | protection from apoptosis, % (concentration not given with the values) | actives 0.8% (n = 300,000) | AID 435005, 2010;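 active = all replicates at 75% or more, or half of them and the mean; inconclusive = half reach 75% but not the mean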;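 also: 0% = cytokine-treated negative control wells and 100% = positive control rescue; higher means more ATP so stronger rescue from cytokine killing; wells of about 40 µL received 100 nL stock; the first replicate is given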
ALR H2O2 inh – inhibitors of human ALR sulfhydryl oxidase, primary screen, biochemical, H2O2 detection, HRP-luminol luminescence, single point; inhibition, % (test concentration not listed); AID 485317, 2010; FAD-linked sulfhydryl oxidase ALR (Homo sapiens), P55789; purified ALR, DTT oxidation; actives 3.8% (n = 290,000);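 active = mean and each replicate at 75% or more; inconclusive = only one of the two met; inactive = neither met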;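 also: stock transfer was 7.5 nL into about 7.5 µL; 0% = neutral wells and 100% = wells with inactivated enzyme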
Target sequence (P55789 whole entry, looked up): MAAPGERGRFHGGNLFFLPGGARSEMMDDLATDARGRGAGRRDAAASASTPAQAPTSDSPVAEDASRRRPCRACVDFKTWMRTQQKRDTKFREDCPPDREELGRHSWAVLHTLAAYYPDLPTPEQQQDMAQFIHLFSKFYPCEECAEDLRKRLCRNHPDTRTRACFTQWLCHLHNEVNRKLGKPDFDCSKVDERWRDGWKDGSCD
AF4-AF9 inh – inhibitors of AF4 peptide binding to AF9, primary screen, biochemical, AlphaScreen, biotin-AF4 peptide, FLAG-AF9, single point | Protein AF-9 (Homo sapiens), P42568 | inhibition, % at 10 µM | actives 0.47% (n = 350,000);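 active = every replicate reaching a set inhibition limit, whatever the replicate mean, cut at about 25% in these data; inconclusive = mean inhibition reaches that limit but some replicates miss it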;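 also: 0% = plate neutral control median and 100% = total signal loss; the record names both 10 and 1 µM as test concentration; the first replicate is given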
Target sequence (P42568 whole entry, looked up): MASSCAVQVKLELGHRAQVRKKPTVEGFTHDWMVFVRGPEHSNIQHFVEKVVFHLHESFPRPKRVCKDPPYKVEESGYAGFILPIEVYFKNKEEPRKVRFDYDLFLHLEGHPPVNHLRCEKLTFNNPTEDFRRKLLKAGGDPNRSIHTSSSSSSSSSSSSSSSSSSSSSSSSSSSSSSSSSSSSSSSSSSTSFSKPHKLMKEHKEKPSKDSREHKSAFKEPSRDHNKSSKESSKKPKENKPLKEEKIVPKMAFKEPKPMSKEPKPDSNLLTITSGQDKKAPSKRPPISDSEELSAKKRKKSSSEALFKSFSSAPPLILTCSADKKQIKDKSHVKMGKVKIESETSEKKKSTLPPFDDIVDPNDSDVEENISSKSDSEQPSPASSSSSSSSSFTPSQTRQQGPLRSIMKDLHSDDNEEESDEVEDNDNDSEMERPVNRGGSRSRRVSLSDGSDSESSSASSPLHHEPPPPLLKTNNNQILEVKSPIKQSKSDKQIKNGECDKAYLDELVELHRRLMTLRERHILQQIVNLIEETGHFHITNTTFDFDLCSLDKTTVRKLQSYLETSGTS
T cruzi repl – inhibitors of intracellular T. cruzi growth, primary screen, luminescence, NIH3T3 host cells. actives 1.4% (n = 300,000). AID 1885, 2009. inhibition, % (test concentration not listed). T. cruzi beta-gal in NIH3T3, 90 h;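 active = mean inhibition across valid replicates above about 55%, limit read from the data; inconclusive = mean below that limit but half or more replicates reach it; inactive = mean below it, under half of replicates reach it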;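 also: signal also drops with host cell toxicity which is not excluded here; 0% = plate median of DMSO wells and 100% = zero luminescence signal; higher percent means less beta-gal luminescence so fewer parasites; stock transfer was 50 nL into about 50 µL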
rRNA inh HTS OD600 – also measured in rRNA inh HTS; calls as there; OD600 change, %; measured here: OD600 growth;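 optical density of the mix in the first replicate; 0 = DMSO median and -100 = no signal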
rRNA inh HTS RFP – further read-out of rRNA inh HTS, marked with its call; RFP signal change, %; measured here: RFP humanized mutant strains;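 first replicate; 0 = DMSO median and -100 = no signal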
Numbers without * were called inactive; i = inactive; ? = inconclusive; / = no result given.

SMILES	FGF22 binding	rRNA inh HTS	rRNA inh HTS OD600	rRNA inh HTS RFP	RanGTP-Imp inh	Calb FLC	Beta cell apopt	ALR H2O2 inh	AF4-AF9 inh	T cruzi repl
CC(=O)N1N=C(c2ccccc2)CC1c1cccc([N+](=O)[O-])c1 (stereo not given)	i	-20	-18	-2.6	0.2	12	2	/	3.4	8
CCOC(=O)N1CCC(NC(=O)c2ccc(N3CCC4(CC3)OCCO4)c([N+](=O)[O-])c2)CC1	i	-9	-5	-1.1	9.3	?	-7	1	-0.8	2
COc1ccc(CCN2C(=S)N(C)C(=O)C2CC(=O)Nc2ccc(OC)cc2)cc1 (stereo not given)	/	-46	-74	-12	-0.1	-17	2	-3	2.2	3
CC(Sc1ccsc1[N+](=O)[O-])C(=O)NCc1ccco1 (stereo not given)	i	/	/	/	0.3	1	-8	14	-0.2	21
Cc1ccccc1-n1ncc(C(C)NS(=O)(=O)c2ccccc2Cl)c1C (stereo not given)	i	-4	-16	-0.2	-0.9	3	-3	-1	-0.1	-4
CCOCCCNC(=O)C(c1ccccc1)N(Cc1cccs1)C(=O)c1ccccc1O (stereo not given)	i	-4	4	1.9	0.7	-8	1	-1	0.8	-2
COc1cnc(-c2ccccn2)nc1Oc1cccc(C(F)(F)F)c1	i	-19	-11	10	-0.2	7	26	-7	-41	-2
CC(C)(C)C(=O)Nc1cccc(C(=O)c2cccc(NC(=O)C(C)(C)C)c2)c1	/	/	/	/	-1.6	5	-4	0	/	-10
Cc1cc(C)cc(N2C(=O)CC(N3CCOCC3)C2=O)c1 (stereo not given)	/	2	2	-4.7	1.7	-9	-3	10	-19	-14
CCN(CC)S(=O)(=O)c1ccc(N2CCCC2)c(NC(=O)C2CSC3(C)CCC(=O)N23)c1 (stereo not given)	i	-4	-31	-1.8	-0.3	6	0	-2	-6.5	-1
CCO/N=C(\C)c1c(O)c(CC)c(-c2ccccc2)n(-c2ccccc2)c1=O	/	/	/	/	-4.0	3	-5	-7	/	-9
O=C(O)c1ccc2cccc(O)c2n1	i	19	15	1.9	0.9	10	-4	/	/	0
Cn1c(NC(=O)c2ccco2)c(-c2ccccc2)c(=O)c2ccccc21	/	/	/	/	3.1	10	-10	-4	/	-4
COc1cc(/C=C/C(=O)OCC(=O)NCC2CCCCC2)ccc1O	i	-2	-22	1.3	/	/	-1	?	2.6	/
CCOC(=O)c1c(-c2ccccc2)csc1NC(=O)c1nn(CC)cc1Br	i	3	2	3.2	-4.4	2	16	-11	-19	63*
COC(=O)c1ccc(NC(=S)NC(=O)c2c(Cl)cnn2C)cc1	i	-2	-9	-1.8	0.1	-20	2	-6	2.4	-6
COc1ccc(CC(=O)Nc2ccc(-c3noc(-c4ccccc4OC)n3)cc2)cc1	/	/	/	/	1.3	0	15	-12	/	22
CCOC(=O)C1NN=C(C(=O)c2ccccc2)C1c1ccc(OC)cc1 (stereo not given)	i	-25*	-15*	0.7*	6.2	1	-4	-3	-0.2	12
CCC(CC)C(=O)Nc1cccc(SC)c1	/	9	3	-0.4	-1.3	-9	-4	-4	-2.3	6
CNc1nc(-c2ccc3c(c2)CCN3C(=O)c2ccccc2F)c(C)s1	i	-2	-9	-0.3	-0.3	27	3	1	2.1	3
O=C(c1ccccc1)N1CCN(CCc2ccccc2)CC1	i	5	5	-0.9	1.2	-4	/	3	-11	-20
O=S(=O)(NCc1ccccc1F)NCc1ccccc1F	i	-6	-3	-0.4	-5.1	?	0	2	-1.9	9
c1ccc(-n2c(SCc3ccncc3)nnc2-c2ccco2)cc1	/	/	/	/	-3.1	26	/	-7	/	6
CC1CCN(C(=O)c2[nH]cnc2C(=O)NCc2ccc(CNC(=O)OC(C)(C)C)cc2)CC1	i	9	4	-2.5	/	/	8	-1	1.7	/
Cn1c(SCC(=O)Nc2ccc(Br)cn2)nnc1C1CC1	i	1	4	-0.6	/	/	-3	-9	-4.9	-10

Carrying on:
SMILES	FGF22 binding	rRNA inh HTS	rRNA inh HTS OD600	rRNA inh HTS RFP	RanGTP-Imp inh	Calb FLC	Beta cell apopt	ALR H2O2 inh	AF4-AF9 inh	T cruzi repl
O=S(=O)(c1ccc2c(c1)OCCO2)N1CCN(c2nc(-c3cccnc3)nc3ccccc23)CC1	/	/	/	/	0.4	3	-2	/	/	20
CN(C)c1nc2n(c(=O)n1)CCS2	/	/	/	/	1.1	-2	-11	-11	/	5
O=c1[nH]c(=O)n(Cc2ccccc2)c2c1C(C(F)(F)F)(C(F)(F)F)N=C(c1ccco1)N2	/	/	/	/	2.2	67	18	-2	/	14
Cc1ccccc1OCc1nnc(SCC(=O)Nc2ccc(N3CCOCC3)c(Cl)c2)n1C	/	/	/	/	1.7	9	/	-1	/	5
COc1ccc(CCNS(=O)(=O)c2csc(C(N)=O)c2)cc1OC	i	2	13	-2.5	-1.8	27	7	0	-5.0	-1
Clc1cccc(Cl)c1Cn1nnc(-c2cccs2)n1	/	/	/	/	2.0	2	-5	-8	/	-7
CC(SCC(=O)Nc1ccc(F)cc1)c1nc2ccccc2c(=O)[nH]1 (stereo not given)	i	2	10	1.0	1.4	0	-18	22	-0.3	-1
Cc1cccc(NC(=O)COC(=O)c2n[nH]c3ccccc23)c1C	i	2	8	-3.5	/	/	-4	1	-9.5	/
N#CCSc1nnc(COc2ccccc2)n1-c1ccccc1	/	/	/	/	-0.2	1	-10	-3	/	-9
Cc1cccc(C)c1OCc1nnc(SCC(=O)NCc2ccccc2)o1	i	-47	-69	-17	5.6	0	-1	-1	4.0	0
Cc1cc(Br)ccc1NC(=O)C1CCN(C(=O)c2ccco2)CC1	i	-25	-25	-9.8	1.9	-3	/	-2	0.4	-11
CSCCC(NC(=O)c1ccc(Br)cc1)C(=O)O (stereo not given)	i	19	-8	-0.6	0.0	-17	3	-1	3.0	-12
O=[N+]([O-])c1cccc(/C=N/Nc2nc(NCc3ccccc3)nc(N3CCOCC3)n2)c1	/	/	/	/	-0.6	23	0	/	/	9
COc1ccccc1C(=O)NCCC(=O)N(C)CC(=O)Nc1c(Cl)cccc1Cl	i	12	8	1.2	5.0	0	/	12	-1.8	-1
COC(=O)c1ccc(Nc2nc(C)nc3c2nnn3Cc2ccccc2)cc1	i	13	2	2.3	-1.2	1	9	2	0.2	-7
CCOC(=O)N1CCC(NC(=O)c2cccc3c2C(=O)N(Cc2cccnc2)C3)CC1	/	/	/	/	6.3	13	1	-2	/	-1
c1ccc(Cc2nnc3n2N=C(c2ccccc2)CS3)cc1	i	-2	-11	-2.3	1.3	-2	-10	-13	1.5	10
CC(C(=O)NN=C(c1ccccc1)c1ccccc1)N1CCCC1 (stereo not given)	i	3	1	1.4	1.7	4	5	0	-0.9	0
CC1(C)CC(=O)N(CC(=O)N2CCN(c3ncccn3)CC2)c2ccccc2S1(=O)=O	i	7	16	-1.8	/	/	-3	13	-2.8	/
COc1ccccc1N(C)S(=O)(=O)c1ccc(C(=O)OCC(=O)Nc2ccccc2F)cc1	i	-25	-31	-20	7.8	-2	-5	3	-2.3	-3
COC(=O)Cn1c(C(F)(F)F)nc2ccccc21	/	/	/	/	-14	-10	-10	-2	/	-2
Cc1ccc(-c2cc(C(=O)NN3CCOCC3)c3cc(Br)ccc3n2)o1	i	-2	1	-1.4	-2.2	0	-2	/	0.1	2
CCN1CCN(C(=S)c2ccc(Cl)cc2)CC1	/	/	/	/	1.4	-6	/	5	/	-1
Cc1cc(C)c2c(CN3CCCCC3)cc(=O)oc2c1	i	10	11	6.2	-1.5	-5	-5	-3	-0.1	-13
CSc1ncc(CN2CCN(C(C)C)C(CCO)C2)cn1 (stereo not given)	i	16	12	-2.5	1.1	2	-2	/	-6.2	13

Compounds shown so far that contain an aryl thioether with sulfur outside any ring:
SMILES	FGF22 binding	rRNA inh HTS	rRNA inh HTS OD600	rRNA inh HTS RFP	RanGTP-Imp inh	Calb FLC	Beta cell apopt	ALR H2O2 inh	AF4-AF9 inh	T cruzi repl
CC(Sc1ccsc1[N+](=O)[O-])C(=O)NCc1ccco1 (stereo not given)	i	/	/	/	0.3	1	-8	14	-0.2	21
CCC(CC)C(=O)Nc1cccc(SC)c1	/	9	3	-0.4	-1.3	-9	-4	-4	-2.3	6
c1ccc(-n2c(SCc3ccncc3)nnc2-c2ccco2)cc1	/	/	/	/	-3.1	26	/	-7	/	6
Cn1c(SCC(=O)Nc2ccc(Br)cn2)nnc1C1CC1	i	1	4	-0.6	/	/	-3	-9	-4.9	-10
Cc1ccccc1OCc1nnc(SCC(=O)Nc2ccc(N3CCOCC3)c(Cl)c2)n1C	/	/	/	/	1.7	9	/	-1	/	5
N#CCSc1nnc(COc2ccccc2)n1-c1ccccc1	/	/	/	/	-0.2	1	-10	-3	/	-9
Cc1cccc(C)c1OCc1nnc(SCC(=O)NCc2ccccc2)o1	i	-47	-69	-17	5.6	0	-1	-1	4.0	0
CSc1ncc(CN2CCN(C(C)C)C(CCO)C2)cn1 (stereo not given)	i	16	12	-2.5	1.1	2	-2	/	-6.2	13

(continued)
SMILES	FGF22 binding	rRNA inh HTS	rRNA inh HTS OD600	rRNA inh HTS RFP	RanGTP-Imp inh	Calb FLC	Beta cell apopt	ALR H2O2 inh	AF4-AF9 inh	T cruzi repl
N#Cc1ccc(CSc2nnc(Nc3ccccc3)s2)cc1	/	/	/	/	-1.8	-1	7	-7	/	5
COc1ccccc1-c1cc(SC)c(C#N)c(=O)o1	i	5	7	4.7	-18	4	5	-26	-2.1	-38
O=c1o[nH]c(-c2ccccc2)c1C=Nc1ccc(Cl)cc1	i	13	14	4.5	-1.8	-2	-6	10	-0.8	-11
COc1ccc(CN2CCN(C(=O)C3CC(=O)N(C4CCCCCC4)C3)CC2)c(OC)c1OC (stereo not given)	/	/	/	/	-2.1	-2	4	-1	/	16
CC1CCc2sc3nc(NCc4ccco4)n4ncnc4c3c2C1 (stereo not given)	/	/	/	/	-1.2	-18	5	1	/	5
O=C(Nc1ccc(Cl)c(Cl)c1)Nc1nnc(CC2=CCCCC2)s1	i	4	0	-0.9	-5.1	-11	84*	19	-1.0	13
Cc1ccc(CCCOC(=O)CN2CCCCC2)cc1	i	10	16	2.6	1.6	1	-4	-6	0.0	-1
O=C(CNC(=O)c1ccccc1)N/N=C/c1ccc([N+](=O)[O-])s1	i	-25	-32	7.3	-2.5	32	-6	-63	-1.3	76*
COc1ccc(C(=O)NNC(=O)CCn2nnc(-c3ccc(Cl)cc3)n2)cc1OC	i	-16	-12	-1.7	0.6	0	1	-4	-0.4	6
CC(=O)c1ccc(-c2ccc([C@H]3[C@@H]4C=CCC[C@@]4(C)C(=O)N3Cc3ccccc3)c(F)c2)cc1	i	-2	4	2.2	-0.3	-7	22	/	1.0	28

Not all compounds are listed. The share of hits here may be higher or lower than overall.
